Lassa entry inh: Lassa virus entry inhibition; Lassa virus pseudotype entry inhibition, cell reporter; control for the full effect not named in the record; Potency, µM (highest dose often 37.9 µM), inactives show at the highest dose activity change, negative = inhibition, usual class: inhibitors; 300,000 tested, 1.2% active; AID 540256; active means well fitted inhibition curve with a large enough effect; inconclusive means small, poorly fitted or top-dose-only effect, or effect the other way; inactive means flat fitted curve, though single readings scatter; tested in HEK293 cells; also: % is scaled to controls: 0 for no effect and ±100 for the full control effect; nearly all actives have a fitted effect of over 50% in size; luciferase read-out
StopGo reporter: FMDV 2A StopGo reporter, luciferase signal; human cells with a luciferase reporter of 2A StopGo recoding; control for the full effect not named in the record; 410,000 tested, 1.2% active; Potency, µM (titrated, usually from 57.9 µM), without a hit: at the highest dose signal change, negative = less light; AID 1159524; active = well fitted falling curve with a large enough effect; inconclusive = small, poorly fitted or top-dose-only effect; inactive = no such curve, though single readings can be large or run the other way; tested in HEK293T cells; also: % is scaled to controls: 0 for no effect and ±100 for the full control effect; nearly all actives have a fitted effect of over 45% in size; luciferase light after 4 h
Cruzain inh noDet: cruzain (T. cruzi) inhibition without detergent. P25779. purified cruzain, Z-FR-AMC fluorescence, no detergent. Potency, µM, for inactives: max response, negative = inhibition, actives largely listed as inhibitors. 200,000 tested, 2.3% active. AID 1476;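 also: plate controls were enzyme without inhibitor for no effect and buffer without enzyme for full effect; nearly all actives have a fitted effect of over 40% in size; top concentration of the series not given in the record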
Target sequence (P25779 123-467 limits assumed): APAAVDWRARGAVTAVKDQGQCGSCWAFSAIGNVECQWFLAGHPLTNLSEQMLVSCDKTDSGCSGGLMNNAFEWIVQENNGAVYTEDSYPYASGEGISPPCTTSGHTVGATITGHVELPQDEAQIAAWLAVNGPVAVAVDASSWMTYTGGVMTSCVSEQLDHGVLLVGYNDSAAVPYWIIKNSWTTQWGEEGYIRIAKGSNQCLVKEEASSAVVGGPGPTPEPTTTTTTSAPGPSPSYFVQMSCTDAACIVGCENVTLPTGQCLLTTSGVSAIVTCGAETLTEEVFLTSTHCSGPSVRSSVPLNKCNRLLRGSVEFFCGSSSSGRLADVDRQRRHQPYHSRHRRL
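Purified cruzain at 1.5 nM, pre-incubated 15 min with compound at room temperature in 100 mM sodium acetate pH 5.5, 5 mM DTT, 0.00005% Triton X-100. Reaction started with 2 uM Z-FR-AMC; AMC fluorescence increase over 60 s gives rate.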
MARV entry inh: inhibitors of Marburg virus binding or cell entry; Potency, µM (top dose mostly 37.8 µM), for the others: top-dose activity change, negative = inhibition, usual class: inhibitors; Marburg virus pseudotyped entry inhibition, cell reporter; control for the full effect not named in the record; about a third of the inactives were read at about 46 µM; 300,000 tested, 1.8% active; AID 540276; active = well fitted inhibition curve with a large enough effect; inconclusive = small, poorly fitted or top-dose-only effect, or effect the other way; inactive = flat fitted curve, though single readings scatter; tested in HEK293 cells; about a fifth of its hits are not listed in these tables; also: % is scaled to controls: 0 for no effect and ±100 for the full control effect; luciferase read-out
RE007 growth inh: less growth of the S. pombe RE007 Vpr strain; 360,000 tested, 0.21% active; S. pombe RE007 Vpr strain, BacTiter-Glo ATP luminescence, 24 h; control for the full effect not named in the record; Potency, µM (titrated, usually from 92.2 µM), for the others: top-dose activity change, negative = less growth; active = well fitted falling curve with a large enough effect; inconclusive = small, poorly fitted or top-dose-only effect; inactive = no such curve, though single readings can be large or run the other way;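 also: % is scaled to controls: 0 for no effect and ±100 for the full control effect; nearly all actives have a fitted effect of over 50% in size; the assay follows cell death caused by Vpr and the record does not say whether a fall means rescue or toxicity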
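Fission yeast strain RE007, carrying one chromosomally integrated HIV-1 vpr copy, was seeded at OD 0.01 in PMG+AL medium with 23 nL pinned compound. After 24 h at 30 °C and 99% humidity, viability was read by BacTiter-Glo luminescence.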
SARS PLP yeast: inhibitors of SARS-CoV papain-like protease in yeast. 330,000 tested, 0.19% active. Potency, µM (doses to about 32.9 µM), for inactives: top-dose activity, positive = growth rescue. S. cerevisiae expressing SARS-CoV PLpro, growth rescue; control for the full effect not named in the record. AID 485353; active means well fitted rising curve with a large enough effect; inconclusive means small, poorly fitted or top-dose-only effect; inactive means no such curve, though single readings can be large or run the other way; also: 0% is about no effect; nearly all actives have a fitted effect of over 55% in size; growth read by luminescence after 48 h
NS1 inh: influenza NS1 inhibition; S. cerevisiae slowed by influenza A NS1, growth recovery by OD600; Potency, µM (highest dose often 46.1 µM), for inactives: at the highest dose activity, positive = more growth; 270,000 tested, 0.4% active; active means well fitted rising curve with a large enough effect; inconclusive means small, poorly fitted or top-dose-only effect; inactive means no such curve, though single readings can be large or run the other way; also: nearly all actives have a fitted effect of over 50% in size
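In this qHTS, NS1 from influenza A is expressed in budding yeast, where it slows growth. Cells are switched from glucose to 2% galactose medium (pH 6.0, -URA), treated with compound, and growth recovery is read at OD600.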
Cruzain Triton: blocks cruzain activity in presence of Triton detergent; P25779; purified cruzain, Z-FR-AMC fluorescence, 0.01% Triton; Potency, µM, for the others: max response, negative = inhibition, most hits filed as inhibitors; 200,000 tested, 0.43% active; AID 1478;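 also: plate controls were neutral wells for no effect and buffer without enzyme for full effect; nearly all actives have a fitted effect of over 40% in size; top concentration of the series not given in the record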
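Cysteine protease activity tested under reducing, mildly acidic conditions (100 mM sodium acetate pH 5.5, 5 mM DTT) plus 0.01% Triton X-100. Cruzain 1.5 nM; substrate Z-FR-AMC 2 uM; 15 min compound preincubation at room temperature.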
Numbers without * were called inactive; ? = inconclusive; · = not tested or not shown; & = joins results of further samples; [ ] = dose if it differs, or a comment. Unless noted, calls follow the shape of the dose curve; as a rule, active = well fitted curve in the direction sought with a large enough effect; inconclusive = small, poorly fitted or top-dose-only effect, or another doubt; inactive = no such curve, though single readings can be large; an effect the other way counts as inactive or inconclusive. Potency is read from the fitted curve at half-maximal effect.

SMILES | Lassa entry inh | StopGo reporter | Cruzain inh noDet | MARV entry inh | RE007 growth inh | SARS PLP yeast | NS1 inh | Cruzain Triton
CCN(CC)Cc1c(O)ccc2c(=O)c(-c3ccc4c(c3)OCCO4)coc12 | -3.5% | -23.7% | -6.8% | 3.4% | -9.1% | -7.6% | 11.3% | 1.3%
CCCCn1c(N)c(-c2nc3ccccc3s2)c2c([N+](=O)[O-])nn(C)c(=O)c21 | ? | 0.0% | 13.8% | ? | -2.1% | 5.9% | 10.2% | 6.0%
CCc1ccc(NC(=O)c2ccc(F)c(S(=O)(=O)NCC3COc4ccccc4O3)c2)cc1 (stereo not given) | 16.4µM* | -26.6% | 1.0% | 11.6µM* | 1.2% | -3.0% | 11.9% | -5.1%
O=C(/C=C/c1cccc([N+](=O)[O-])c1)c1cccs1 | ? | -89.6% | -1.0% | ? | ? | -60.7% | -34.1% | -2.0%
COc1cccc(NC(=O)c2ccnc(N3CCC(C(=O)NCc4ccccc4OC)CC3)c2)c1 | · | -9.6% | · | · | -1.3% | 1.9% | 8.9% | ·
CC1(C)Cc2c(sc(NC(=O)C(=O)N3CCCC3)c2C(N)=O)CO1 | ? | 3.2% | · | ? | 8.4% | 22.6% | 6.8% | ·
Cc1[nH]c2ccc(-c3nnc(SCC(=O)N4CCCc5ccccc54)o3)cc2c1C | ? | · | 25.2% | -21.3% | -12.4% | 8.7% | -18.0% | -3.5%
COc1ccccc1N1CCN(C(=O)c2cccc(Oc3ccccc3)c2)CC1 | · | -7.6% | · | · | -2.9% | -5.4% | 0.8% | ·
C=CC(=O)NC(NC(=O)C=C)c1ccccc1F | -16.9% | -6.8% | · | -3.5%[46.1 µM] | 8.5% | -0.1% | -1.5% | ·
COc1ccc(CCn2cc3c(c2-c2ccc(Br)cc2)c(=O)n(C)c(=O)n3C)cc1OC | -17.7%[46.1 µM] | -20.2% | -8.5% | 0.8%[46.1 µM] | · | · | · | 0.8%

Already shown: entries from further up.
SMILES | Lassa entry inh | StopGo reporter | Cruzain inh noDet | MARV entry inh | RE007 growth inh | SARS PLP yeast | NS1 inh | Cruzain Triton
C=CC(=O)NC(NC(=O)C=C)c1ccccc1F | -16.9% | -6.8% | · | -3.5%[46.1 µM] | 8.5% | -0.1% | -1.5% | ·
COc1ccc(CCn2cc3c(c2-c2ccc(Br)cc2)c(=O)n(C)c(=O)n3C)cc1OC | -17.7%[46.1 µM] | -20.2% | -8.5% | 0.8%[46.1 µM] | · | · | · | 0.8%

The results go on:
SMILES | Lassa entry inh | StopGo reporter | Cruzain inh noDet | MARV entry inh | RE007 growth inh | SARS PLP yeast | NS1 inh | Cruzain Triton
COc1ccc(C(=O)/C(=C\c2sccc2C)c2nc3ccccc3o2)cc1 | 10.9% | · | -24.7% | 8.5% | · | 23.4% | -10.6% | -0.2%
CC(CCc1ccccc1)NC(=O)Cn1c(=O)nc(-c2ccccc2)c2ccccc21 (stereo not given) | ? | 19.4% | -2.5% | · | · | · | · | -6.4%
C=CCNc1nc2ccccc2c(=O)[nH]1 | -0.2% | -2.1% | · | -0.8%[46.1 µM] | 3.6% | 1.7% | 1.7% | ·
COc1cc(NC(=O)c2sc3ncn(CC(=O)N4CCCCC4)c(=O)c3c2C)cc(OC)c1OC | · | -9.6% | · | · | 1.0% | 5.4% | -14.8% | ·
Cc1ccc(Cl)cc1NC(=O)COC(=O)CSc1ccccc1 | 14.9% | -17.3% | · | 5.8% | -4.5% | -6.5% | · | ·
Oc1ccccc1Nc1nc(NCc2ccco2)c2ccccc2n1 | · | ? | · | · | 9.8% | -0.7% | -39.1% | ·
Fc1ccccc1CSc1nc2ncc(Br)cc2[nH]1 | ? | 14.2% | ? | 0.0% | 0.6% | -0.7% | -6.0% | 1.3%
N#Cc1ccc(-c2ccc(F)cc2)nc1Oc1ccc(F)cc1 | -4.4% | -11.4% | ? | ? | 3.0% | 3.5% | 6.4% | -5.9%
COc1cc(C)c(CNCCc2c[nH]c3ccccc23)cc1C | · | -10.7% | · | · | -22.8% | 2.6% | -3.1% | ·
CC(C)(C)n1ncc2c(=O)n(CC(=O)N3CCc4ccccc43)cnc21 | 4.9% | 0.0% | 10.4% | 20.7% | -11.4% | 0.1% | 4.5% | 2.4%
COc1ccc(N(CC(O)CN2CCCCC2)S(=O)(=O)c2ccc(C)cc2)cc1 (stereo not given) | -1.9% | -16.7% | -6.5% | ? | -3.0% | 8.2% | 0.9% | 0.1%
Cc1sc2nc(SCC(=O)c3cc(C)n(CC4CCCO4)c3C)n(C(C)C)c(=O)c2c1C (stereo not given) | ? | -20.8% | ? | -24.1%&-24.1%[46.1 µM] | -8.2% | ? | -2.3% | -4.4%
CCCc1nc2ccc(Br)cc2c(=O)n1-c1ccc([N+](=O)[O-])c(C(F)(F)F)c1 | ? | ? | 8.2% | ? | · | -18.7% | -0.5% | -7.2%
O=C(Nc1c[nH]c(=O)[nH]c1=O)c1ccc2c(c1)C(=O)N(c1cccc([N+](=O)[O-])c1)C2=O | ? | -8.3% | · | -17.6%[46.1 µM] | -14.9% | 0.4% | 3.0% | ·
COc1ccc(/C=C/C(=O)O/N=C(\N)c2ccccn2)cc1OC | ? | 20.9% | · | ? | -19.7% | -3.1% | · | ·
Cc1ccc2oc(C(=O)NCc3ccccc3)cc(=O)c2c1 | -11.8%[46.1 µM] | -7.7% | · | -18.6%[46.1 µM] | 0.1% | 11.2% | -0.9% | ·
CCOC(=O)c1c(-c2ccc(OC)cc2)oc2ccc(OCc3ccccc3C)cc12 | -7.4%[46.1 µM] | 2.6% | ? | 28.1%[46.1 µM] | · | · | · | -3.3%
Cc1c(C(=O)NCc2cccnc2)sc2nc(-c3ccccc3)cn12 | · | -10.3% | · | · | -0.5% | -4.6% | -8.3% | ·
CCOc1ccc(NC(=O)CCC(=O)NNC(=O)NC2CCCCC2)cc1 | 1.2% | 8.9% | · | 2.1% | 5.2% | -1.7% | -20.7% | ·
COc1ccc(N2C(=O)CCC(C(=O)N3CCC(C(N)=O)CC3)C2c2ccc(F)cc2)cc1 (stereo not given) | -19.7% | 10.8% | -5.9% | 2.4%&2.4%[46.1 µM] | -7.9% | -7.2% | -1.6% | 8.1%
O=[N+]([O-])c1cccc(C2N3CCCN23)c1 (stereo not given) | · | 7.8% | · | · | -4.0% | 0.5% | 6.3% | ·
Cc1nnc(SCC(=O)Nc2cccc(S(=O)(=O)N(C)c3ccccc3)c2)s1 | -5.6% | ? | -2.0% | -19.5% | -2.4% | -4.0% | -1.7% | -5.4%
O=C(CSc1nc2ccccc2[nH]1)Nc1ccc(F)cc1 | · | 0.0% | ? | · | 15.9% | -9.8% | -3.8% | -13.2%
O=C(CC1C(=O)NCCN1Cc1ccccc1C(F)(F)F)NCCN1CCOCC1 (stereo not given) | · | 0.0% | · | · | -6.1% | -1.5% | -5.1% | ·
CCC(C)NC(=O)c1cc(Sc2cccc(Cl)c2)nc2ccccc12 (stereo not given) | 17.2%[46.1 µM] | ? | -7.5% | · | · | · | · | 3.3%
CCCCOc1ccc(CN(C)c2ncnc(N)n2)cc1 | 24.3%[14.3 µM] | 18.8% | -20.3% | -10.1%&-10.1% | 0.1% | 14.5% | -8.8% | -0.9%
C/C(=N\NC(=O)c1cc(-c2ccc(Cl)s2)[nH]n1)c1ccncc1 | 24.9%[46.1 µM] | -3.7% | · | ? | 6.8% | 1.2% | -12.2% | ·
COc1ccc(NC(=O)N/C=C/c2ccccc2)cc1 | 1.9%[46.1 µM] | 9.8% | · | 9.5%[46.1 µM] | -4.5% | -5.9% | · | ·
N#Cc1ccccc1OCC(=O)N1CCN(c2ccccc2F)CC1 | · | ? | 18.2% | 13.4%[46.1 µM] | · | · | · | 0.1%
COCCCn1c(C(=O)N2CC(C)OC(C)C2)cc2c(=O)n3cccc(C)c3nc21 (stereo not given) | -14.9%[46.1 µM] | -2.8% | · | -7.8%[46.1 µM] | 1.7% | 7.3% | -5.3% | ·
CN(C)c1ccc(CN(CC2CCCO2)C(=O)c2cc3ccccc3o2)cc1 (stereo not given) | ? | -8.3% | · | -21.2% | -5.2% | -2.9% | · | ·
C=CCn1c(SCc2nc3c(c(=O)[nH]c(=O)n3CCCC)n2CCC)nnc1-c1ccccc1 | ? | ? | -0.6% | -7.3%&-7.3% | 0.2% | 1.8% | 0.6% | -4.7%
O=C1Nc2cc(C(=O)NCCCN3CCOCC3)ccc2S/C1=C/c1cccc(Cl)c1 | · | ? | · | · | 3.5% | 1.9% | 2.1% | ·
N#Cc1c(-c2ccccc2)nc2n(-c3ccccc3)nc(C(=O)Nc3ccccc3)n2c1=O | 5.1% | -5.3% | 10µM* | 12.2% | 5.9% | 10.1% | -6.3% | 2.4%
O=C(c1cc2ccccc2o1)N1CCN(Cc2ccccc2)CC1 | ? | 15.9% | · | 9.2%&9.2%[46.1 µM] | 6.6% | 24.1% | -1.6% | ·
CC(C)c1ccccc1NC(=O)CNCCc1ccc(C(F)(F)F)cc1 | · | ? | · | -2.2% | -10.0% | -1.1% | -59.7% | ·
CC(C)Cn1c(=O)c2sccc2n2c(CCCC(=O)NCCc3ccccc3)nnc12 | -1.5%[46.1 µM] | -12.6% | 1.7% | · | · | · | · | -0.1%
O=C(Nn1c(Cc2ccccc2)nc2ccccc2c1=O)c1c(O)c2cccc3c2n(c1=O)CCC3 | · | -28.2% | · | · | -3.4% | -0.2% | 1.8% | ·
O=C(Nc1ccccn1)C(=O)Nc1ccccn1 | · | -9.6% | · | · | -17.1% | -1.1% | -2.8% | ·
O=c1[nH]cc(-c2ccc(Br)cc2)n1Cc1ccccc1 | · | -23.6% | · | · | 20.5% | -0.4% | -0.3% | ·
O=[N+]([O-])c1ccc(Cl)c(S(=O)(=O)Nc2ccc3cn[nH]c3c2)c1 | -2.5%[46.1 µM] | 24.0% | · | 5.2%[46.1 µM] | -17.3% | -2.6% | · | ·
Nc1ccn(Cc2ccccc2F)n1 | 19.0% | -3.7% | · | ? | 1.6% | -0.2% | · | ·

Source: PubChem (National Center for Advancing Translational Sciences (NCATS))
